GLA inh pH 4.5 – qHTS Assay for Inhibitors of Human alpha-Galactosidase at pH 4.5; Alpha-galactosidase A (Homo sapiens), P06280; purified enzyme, 4-MU-alpha-Gal fluorescence, pH 4.5; activity change, negative = inhibition, % at 105 µM; 230,000 tested, under 10 active; AID 1467, 2008; inconclusive = small, poorly fitted or top-dose-only inhibition, or a rising curve; inactive = flat fitted curve, though single readings scatter; no compound was filed as active;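 further: 0% = full activity with enzyme and -100% = basal without enzyme; dose as in the result columns while the protocol names 77 µM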
miR-21 reporter – qHTS Assay for Modulators of miRNAs and/orActivators of miR-21; HeLa miR-21 FLuc reporter, luciferase, 48 h; Potency, µM (highest dose often 38.3 µM), for the others: at the highest dose reporter change, positive = more light; 340,000 tested, under 10 active; AID 2288, 2010; active = well fitted rising curve with a large enough effect; inconclusive = small, poorly fitted or top-dose-only effect; inactive = no such curve, though single readings can be large or run the other way;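 further: % of control where 0% means no effect; miR-21 action dims this reporter so a rising signal means less miR-21 action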
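Using DMEM plus 10% FBS, HeLa miR-21-FLuc cells are incubated with test compounds (final up to about 40uM) for 48 hours; firefly luciferase signal is then imaged following reagent-mediated lysis.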
Rango dissoc inh – qHTS Assay for Inhibitors of RanGTP induced Rango (Ran-regulated importin-beta cargo) - Importin beta complex dissociation. Snurportin-1 (Homo sapiens) + GTP-binding nuclear protein Ran (Homo sapiens) + Importin …. 340,000 tested, 0.071% active. Potency, µM (doses to about 46.1 µM), without a hit: at the highest dose activity change, negative = inhibition. Biochemical FRET Rango-importin beta, RanGTP-induced dissociation; active means falling FRET ratio curve, often poorly fitted, with flat reads before Ran was added; inconclusive means other falling curves, or compound fluorescence or quenching; inactive means flat or rising ratio curve;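 further: potency means the concentration at half of the fitted maximal effect; % of control where 0% means no effect; nearly all actives have a fitted effect of over 45% in size; -100% = wells without RanGTP and RCC1; the record marks most hits as doubtful in a second field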
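Recombinant Rango FRET biosensor (EYFP–snurportin 1 IBB–cerulean CFP10) at 0.1 uM premixed with 0.25 uM importin beta in PBS, 1 mM DTT, 0.02% Tween-20, 0.1% BSA. Compound added 5 min; RanGTP-RCC1 (0.6 uM Ran, 2 mM GTP, 0.2 uM RCC1) then triggers release, read at 45 min.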
Rango complex inh – qHTS Assay for Inhibitors of Rango (Ran-regulated importin-beta cargo) - Importin beta complex formation. AID 540263, 2011. Importin subunit beta-1 (Homo sapiens), Q14974. 340,000 tested, 0.031% active. Rango CFP/YFP FRET sensor + importin beta, 45 min. Potency, µM (titrated, usually from 92.2 µM), for the others: at the highest dose inhibition of complex formation; active = rising FRET ratio curve, often small or poorly fitted; inconclusive = mostly compound fluorescence or quenching in the first reads; inactive = flat curves in all reads;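 further: potency means the concentration at half of the fitted maximal effect; 0% = DMSO wells and 100% = buffer wells lacking importin beta; nearly all actives have a fitted effect of over 15% in size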
Target sequence (Q14974 whole entry, looked up): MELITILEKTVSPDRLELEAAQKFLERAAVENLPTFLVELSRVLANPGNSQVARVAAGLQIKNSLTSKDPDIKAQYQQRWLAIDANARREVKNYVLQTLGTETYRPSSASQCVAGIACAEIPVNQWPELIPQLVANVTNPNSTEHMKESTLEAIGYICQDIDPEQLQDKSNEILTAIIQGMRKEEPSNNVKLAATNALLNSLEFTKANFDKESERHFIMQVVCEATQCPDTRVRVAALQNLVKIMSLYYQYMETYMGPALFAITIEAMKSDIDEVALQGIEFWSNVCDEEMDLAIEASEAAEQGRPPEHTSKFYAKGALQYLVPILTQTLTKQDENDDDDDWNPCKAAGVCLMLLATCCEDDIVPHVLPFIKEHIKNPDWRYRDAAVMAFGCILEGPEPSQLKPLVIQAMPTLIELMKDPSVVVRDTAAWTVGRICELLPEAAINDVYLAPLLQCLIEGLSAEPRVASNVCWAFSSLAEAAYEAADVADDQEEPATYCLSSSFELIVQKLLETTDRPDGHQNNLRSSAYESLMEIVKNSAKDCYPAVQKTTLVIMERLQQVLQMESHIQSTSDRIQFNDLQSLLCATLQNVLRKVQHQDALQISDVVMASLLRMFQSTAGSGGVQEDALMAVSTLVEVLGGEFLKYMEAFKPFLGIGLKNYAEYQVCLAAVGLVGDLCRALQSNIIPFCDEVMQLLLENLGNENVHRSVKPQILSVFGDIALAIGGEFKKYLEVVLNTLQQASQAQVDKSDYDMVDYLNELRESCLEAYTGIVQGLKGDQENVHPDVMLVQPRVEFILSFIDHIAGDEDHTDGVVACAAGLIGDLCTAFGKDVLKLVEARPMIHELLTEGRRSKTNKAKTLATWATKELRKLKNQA
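Inhibition scored from the CFP 486 nm/YFP 530 nm FRET ratio 45 min after adding 0.125 microM importin beta to 50 nM Rango biosensor preincubated 5 min with compound (room temperature, PBS with DTT, Tween-20, BSA). No-importin wells as positive control.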
Starred values were filed as active, the others as inactive; ? = inconclusive; . = no result given; & = joins results of further samples. An excerpt. The share of hits here may be higher or lower than overall.

GLA inh pH 4.5	miR-21 reporter	Rango dissoc inh	Rango complex inh	canonical_smiles
1.4	-4.7%	2.5%	0.2%	Cc1oc(-c2ccc(C(F)(F)F)cc2)nc1CN(Cc1ccccn1)C[C@@H]1CCC(=O)N1
.	-27.6%	0.6%	-0.2%	O=C(c1cc(-c2ccc(F)cc2)on1)N1CCOCC1
2.9	-17.4%	-7.2%	5.4%	COc1ccc(NC(=O)C/C(C)=N/NC(=O)c2cnccn2)cc1
.	-3.6%	22.9%	?	COc1ccc(NC(=O)CCc2ccc(OC)c(OC)c2)cn1
-10.5	-40.0%	-4.9%	0.7%	Cc1nc2c(cc1C(=O)N/N=C/c1ccc(O)c(O)c1)c(=O)n(C)c(=O)n2C
.	-7.2%	-19.2%	0.5%	CCOC(=O)c1ccc(N2CCN(c3cc(C)ccc3C)CC2)c(N)c1
0.5	-27.9%	28.3%	-1.4%	O=C(NCCCN1CCOCC1)c1cc2c(s1)CCCC2
.	.	1.3%	1.8%	O=S(=O)(c1ccc(SCc2ccccc2)nc1)N1CCCCC1
-4.5	-3.4%	-8.8%	1.7%	C=CCNC(=S)/C(=C(/[O-])c1ccc([N+](=O)[O-])cc1)[n+]1ccccc1
-21.3	1.3%	0.2%	1.6%	CCc1ccc(OCC(O)CN2CCC(CN3C(=O)c4cccc5cccc(c45)C3=O)CC2)cc1 (stereo unspecified)
4.2	-7.1%	2.8%	-0.6%	Cc1c(Br)cc(C(=O)NCc2ccco2)c(C)c1C
.	0.8%	8.1%	-3.0%	COc1ccc(OC)c(S(=O)(=O)N2CCC(C(=O)NCc3ccncc3)CC2)c1
-0.7	-20.2%	-6.2%	5.0%	CC(C)OC(=O)CSc1nnc(-c2ccc(C(C)(C)C)cc2)n1N
3.7	4.2%	-3.4%	-0.4%	Cc1ccc(-c2c(C)sc3ncn(CC(=O)N4CCOCC4)c(=O)c23)cc1C
.	-4.8%	26.3%	3.9%	CC1CC(=O)N(CC(=O)Nc2ccc(F)cc2)c2ccccc2S1(=O)=O (stereo unspecified)
1.4	-0.5%	-3.0%	-2.1%	Cc1nc(SCC(=O)O)n[nH]1
-0.1	-10.1%	2.4%	3.0%	Cc1cc(Nc2cccc(C(F)(F)F)c2)n2nc(C)nc2n1
1.4	-5.3%	-1.2%	-1.4%	CCc1ccc(Nc2oc(C)cc(=O)c2C(C)=O)cc1
.	.	11.2%	0.1%	O=C1NC[C@H](Cc2ccccc2)N(CC2CCN(CCCC3CCCC3)CC2)C1=O
.	.	27.7%	1.5%	O=C(NCc1ccccc1Cl)c1cccc2c1C(=O)c1ccc(-c3ccc(OC(F)(F)F)cc3)cc1S2(=O)=O
-3.8	0.2%	-2.8%	-3.3%	CCc1nnc(NC(=O)CCN(c2ccc(C)cc2)S(=O)(=O)c2ccccc2)s1
-1.6	0.6%	-0.2%	-0.2%	CCN(CC)CCC(=O)c1ccc(F)cc1
-5.8	7.2%	-2.6%	-2.4%	Cn1c(CCN2CCN(c3ccc(F)cc3)CC2)nc2cc(NC(=O)c3ccco3)ccc21
-3.6	-6.3%	5.8%	1.3%	Cc1ccc(N2C(=O)c3ccccc3C2Nc2ccc(S(=O)(=O)N3CCCCC3)cc2)nc1 (stereo unspecified)
.	.	-7.2%	?	CCOC(=O)C1CCCN(C(=O)CSc2nnc3nc(C)cc(C)n23)C1 (stereo unspecified)
-0.7	-0.8%	9.9%	-0.7%	COc1ccccc1CNCc1cccs1
-7.4	26.1%	-9.3%	-0.3%	Cc1nn(-c2ccccc2)c(C)c1NC(=O)COc1ccc(Br)cc1Cl
6.4	-5.5%	9.5%	0.6%	Cc1cccc(C)c1NC(=S)N(CCc1ccncc1)C(C)C
11.7	-0.2%	2.7%	0.5%	O=C(N/C(=C\c1ccco1)C(=O)N1CCOCC1)c1ccco1
-25.6	-13.5%	-12.2%	-0.9%	Cc1cc(C)c2cc(CN(CC3CCCO3)S(=O)(=O)c3ccc4c(c3)OCCO4)c(=O)[nH]c2c1 (stereo unspecified)
-9.7	-5.3%	8.2%	0.1%	COc1ccc([N+](=O)[O-])cc1NC(=O)COC(=O)C=C(C)C
2.8	-12.6%	-17.4%	-2.2%	CC1(C)Cc2c(sc(NC(=O)c3ccc(Br)o3)c2C#N)CO1
.	.	0.0%	-4.0%	CCn1c(SC(C)C(=O)Nc2ccc3c(c2)OCCO3)nnc1C1CC1 (stereo unspecified)
6.5	-3.5%	2.7%	-1.2%	O=C(COC(=O)[C@H](Cc1ccccc1)NC(=O)c1cccs1)NC1CCCCC1
18.5	-12.1%	7.5%	-0.5%	COc1ccc2[nH]c(=O)c(CN(CCO)S(=O)(=O)c3ccc4c(c3)OCCO4)cc2c1
-5.7	-12.7%	-3.6%	1.5%	COc1ccc2c(=O)c(-c3ccccc3C)c(C)oc2c1
.	-1.2%	-3.2%	-0.6%	COc1ccccc1NC(=O)CSc1n[nH]c(Cc2ccccc2)n1
.	.	-0.1%	-0.4%	O=C(CSc1nnc2ccc(-c3cccnc3)nn12)Nc1ccccc1F
-5.1	-4.9%	-10.7%	-1.6%	O=C(NCCc1csc(-c2ccccc2)n1)c1cccs1
.	-0.2%	-3.3%	1.3%	COc1cc(/C=C2\N=C(C)OC2=O)cc(Cl)c1OC(C)=O
-1.3	-8.2%	6.6%	?	O=C(CC1C(=O)NCCN1CC(c1ccccc1)c1ccccc1)NCCc1cn[nH]c1 (stereo unspecified)
.	0.9%	-3.9%	0.2%	OCC[C@@H]1C[C@@H](O)[C@H](O)[C@@]2(CCc3ccccc3CO2)O1
10.4	5.7%	1.1%	-0.5%	COc1ccccc1CNC(=O)C1Cc2ccccc2C(=O)O1 (stereo unspecified)
0.4	4.2%	13.3%	0.1%	COc1ccc2cnn(-c3ccccc3C)c(=O)c2c1OC
.	.	-2.8%	-2.4%	CCc1ccc([C@@H]2CC=C(C(=O)O)[C@H](c3ccc(C(C)(C)C)cc3)N2S(=O)(=O)c2ccc(C)cc2)cc1
1.9	-2.7%	14.2%	-1.5%	CCOC(=O)C1CCCC(NS(=O)(=O)c2ccc(NC(C)=O)cc2)C1 (stereo unspecified)
.	.	9.8%	3.3%	CCN(C[C@H]1N[C@@](CC)(C(=O)OC)[C@H]2C(=O)N(Cc3ccccc3)C(=O)[C@@H]12)C(=O)C1CCCCC1
.	-8.9%	-21.2%	-3.3%	CCOc1cc(C)ccc1OCc1nnc(SCC(=O)Nc2cccc(C(=O)O)c2)n1-c1ccccc1
.	.	10.7%	1.2%	O=C(c1cccc(S(=O)(=O)N2CCOCC2)c1)N1CCC(Cc2ccccc2)CC1
-7.8	-16.3%	-19.8%	-2.4%	O=C(Cc1ccccc1)Nc1ccc(N2CCCC2)cc1
4.5	-7.5%	1.8%	0.9%	S=C1NC2=C(CCCC2)C2(CCCCC2)N1
-4.7	-39.3%	-5.1%	0.9%	CCS(=O)(=O)N1Cc2ccccc2CC1C(=O)Nc1nc2c(C)cccc2s1 (stereo unspecified)
.	-3.2%	25.6%	0.3%	COc1ccc(CNCc2ccncc2)cc1OC
?	-8.7%	6.4%	-1.1%	C/C(=N/NC(=O)c1cn(-c2cccc(C)n2)cn1)c1ccc(C)cc1
.	0.1%&-8.4%	-7.3%	5.9%	COc1cccc(NC(=O)CC2Oc3ccccc3NC2=O)c1 (stereo unspecified)
.	.	1.8%	-0.2%	O=C(COc1coc(CN2CCN(c3ccc(F)cc3)CC2)cc1=O)NC1CCCCC1

The list continues:
GLA inh pH 4.5	miR-21 reporter	Rango dissoc inh	Rango complex inh	canonical_smiles
2.0	-0.6%	6.9%	1.7%	CCOC(=O)C1=C(C)OC(N)=C(C#N)C1c1cc(SCC)oc1C (stereo unspecified)
0.6	-0.1%	19.3%	0.1%	COC(=O)CSc1nc2[nH]ncc2c(=O)[nH]1
.	.	-2.9%	4.1%	CN(Cc1ccc(F)cc1)C(=O)c1cc(S(=O)(=O)N2CCCCC2)ccc1N1CCOCC1
.	.	7.4%	2.7%	O=C(O)c1ccccc1N(c1ccccc1)c1ccccc1
2.1	-51.8%	0.0%	0.5%	O=[N+]([O-])c1ccc(F)cc1OCc1nc(-c2cccs2)no1
.	-0.2%	-0.1%	1.8%	CN(CC(=O)Nc1ccccc1Cl)C1CCCCC1
0.2	-2.1%	-4.9%	-0.2%	CCc1cccc(C)c1NC(=O)CN1C(=O)c2ccccc2S1(=O)=O
-5.8	0.6%	-1.2%	0.9%	O=C(CCc1ccccc1)Nc1ccc(S(=O)(=O)N2CCOCC2)cc1
-3.9	-46.5%	16.8%	-3.0%	CCOC(=O)c1nnsc1Nc1ccc(C)c(C)c1
3.6	-15.7%	8.0%	-4.3%	c1ccc(CSc2ncnc3sccc23)cc1
1.4	-4.9%	2.2%	-1.2%	CCCS(=O)(=O)c1nc(S(=O)(=O)c2ccc(C)cc2)c(NCCN2CCOCC2)s1
.	-0.1%	15.9%	-0.5%	O=C(CC(C(=O)O)c1cccc(Cl)c1Cl)c1ccccc1 (stereo unspecified)
.	-6.5%	2.0%	1.4%	COc1ccc(/C=C(/NC(=O)c2ccccc2)C(=O)N2CCCCC2)cc1OC
.	-11.4%	-3.8%	1.2%	O=C(CNC(=O)c1ccccc1F)N/N=C/c1ccco1
1.4	-2.9%	0.0%	-0.1%	Cc1ccc(C(C(=O)NC2CCCC2)N(C(=O)c2csnn2)C2CCCC2)o1 (stereo unspecified)
-0.2	?	?	?	CN1/C(=C/C(=O)c2nc(S(C)(=O)=O)ncc2Cl)C(C)(C)c2ccccc21

In another format: entries from further up.
CCCS(=O)(=O)c1nc(S(=O)(=O)c2ccc(C)cc2)c(NCCN2CCOCC2)s1
  GLA inh pH 4.5 = 1.4	miR-21 reporter = -4.9%	Rango dissoc inh = 2.2%	Rango complex inh = -1.2%
O=C(CC(C(=O)O)c1cccc(Cl)c1Cl)c1ccccc1 (stereo unspecified)
  GLA inh pH 4.5 = .	miR-21 reporter = -0.1%	Rango dissoc inh = 15.9%	Rango complex inh = -0.5%
COc1ccc(/C=C(/NC(=O)c2ccccc2)C(=O)N2CCCCC2)cc1OC
  GLA inh pH 4.5 = .	miR-21 reporter = -6.5%	Rango dissoc inh = 2.0%	Rango complex inh = 1.4%

Continuation:
GLA inh pH 4.5	miR-21 reporter	Rango dissoc inh	Rango complex inh	canonical_smiles
.	.	-9.3%	0.1%	O=C(CSc1ccc(Cl)cc1)NC(=O)NC1CCCC1
-19.1	-4.0%	1.6%	-2.4%	COc1ccc(NC(=O)COC(=O)C2=COCCO2)cc1OC
1.3	16.3%	?	?	CCCCNC(=O)/C(C#N)=C/c1ccc(-c2ccc(S(=O)(=O)N3CCOCC3)cc2)o1
1.3	-0.9%	15.9%	0.8%	CCC(C)[C@@H](CN(N=O)[C@@H](Cc1ccccc1)CN(C)N=O)N(CCc1ccccc1)N=O (stereo partly specified)
.	.	15.3%	0.8%	CCN(c1ccccc1)S(=O)(=O)c1ccc(Cl)c(NC(=O)c2ccc(=O)[nH]n2)c1
.	11.5%	22.3%	0.5%	COc1cccc(NS(=O)(=O)c2ccc3c(c2)N(C(C)=O)CCS3)c1
-13.4	-2.4%	1.3%	-3.3%	COc1ccc(C(=O)N/N=C/c2ccc(N3CCOCC3)o2)cc1OC

Given field by field: part of the list above.
> COc1cccc(NC(=O)CC2Oc3ccccc3NC2=O)c1 (stereo unspecified)
- GLA inh pH 4.5: .
- miR-21 reporter: 0.1%&-8.4%
- Rango dissoc inh: -7.3%
- Rango complex inh: 5.9%
> CCC(C)[C@@H](CN(N=O)[C@@H](Cc1ccccc1)CN(C)N=O)N(CCc1ccccc1)N=O (stereo partly specified)
- GLA inh pH 4.5: 1.3
- miR-21 reporter: -0.9%
- Rango dissoc inh: 15.9%
- Rango complex inh: 0.8%
